Ba CapD inh = inhibitors of Bacillus anthracis CapD enzyme; purified CapD enzyme, fluorescence intensity read-out; hits give low values; some hits fall short of the stated cut; z-score (test concentration not listed); actives 0.23% (n = 140,000);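 active = z-score under -4 in either of two replicates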;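 also: stock transfer was 100 nL into about 40 µL; score is relative to mean and spread of the plate; one replicate is shown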
AID504770 = growth inhibitors of E. coli YBA685 in a screen for V. cholerae RctB (chromosome II replication) inhibitors | E. coli YBA685 rctB-dependent plasmid, OD600 growth, 3 h; hits give low values | z-score (no concentration beside the values) | actives 0.27% (n = 130,000);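 active = z-score under -2 on both plates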;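 also: wells of about 30 µL received 100 nL stock; score is relative to mean and SD of the test wells; the first replicate is given; strong numbers were not always called active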
Active calls of the source: *; . = no result given. Some of the compounds tested. The share of hits here may be higher or lower than overall.

SMILES	Ba CapD inh	AID504770
O=C(NC1CC1)c1cccc(NC(=O)C2COc3ccccc3C2)c1 (stereo not drawn)	.	-0.05
Cc1c(C(=O)Nc2ccc3c(c2)OCO3)sc2ncnc(N3CCN(c4ccccn4)CC3)c12	0.255	.
COc1cc(/C=C2\N=C(c3ccccc3)N(c3ccccc3)C2=O)cc(OC)c1OC	-0.43	.
C=CC1CN2CCC1CC2[C@H](O)c1cnc2ccccc2c1 (stereo partly drawn)	0.695	0.1
CC1CN=C(NC(=O)c2ccccc2)S1 (stereo not drawn)	0.265	-1.1
CCc1noc(C)c1C(=O)Nc1sc(C(=O)N(C)C)c(C)c1C(=O)OC	1.05	-0.8
OCC1N=C(c2ccccn2)OC1c1ccccc1 (stereo not drawn)	0.07	0.4
COc1ccc(N(Cc2cc(C)on2)S(=O)(=O)c2cc(C)ccc2C)cc1	.	-0.15
CC1=C(C(=O)OC2CCCCCCC2)C(c2ccc(Br)cc2)NC(=O)N1 (stereo not drawn)	0.095	.
O=C(Cn1cnnn1)OCC(=O)c1ccc(Cl)s1	.	-2.65
Cc1cccc(NC(=O)c2sc3nc(C)nc(N4CCN(C)CC4)c3c2C)n1	-0.14	.
CCOC(=O)c1c(NC(=O)c2cc3n(n2)C(C(F)(F)F)CC(c2ccccc2)N3)sc2c1CCC2 (stereo not drawn)	0.445	.
CCCc1oc2ccc(NS(=O)(=O)c3ccc(F)cc3)cc2c1C(=O)OCC	-0.91	.
CC1CCCC(C)N1CC(O)COc1c(F)cc(Br)cc1F (stereo not drawn)	-0.5	-1.15
COc1ccc(-c2nnc(C3CCN(S(=O)(=O)c4ccc(F)c(C)c4)CC3)o2)cc1	-0.285	-0.35
CCn1c2ccccc2c2nnc(N3CCN(c4ccccc4)CC3)nc21	-0.535	0.65
O=C(NCc1ccccc1Br)C1CCCO1 (stereo not drawn)	0.125	-0.45
COC(=O)c1ccc(CN2CCN(CCN3C(=O)c4cccc5cccc(c45)C3=O)CC2)cc1	1.35	.
N#CCN1C(=O)c2ccccc2S1(=O)=O	-0.285	.
O=C(O)C1C2C=CC(C2)C1C(=O)NCc1cccc(Cl)c1 (stereo not drawn)	0.66	0.95
O=c1[nH]c(CSc2nnnn2C2CCCC2)nc2ccccc12	.	0.25
Cc1onc(-c2c(Cl)cccc2Cl)c1NC(=O)O/N=C/c1cccnc1	-0.64	.
NC(=O)CCOC1CCN(Cc2ccccc2)CC1	0.26	.
CC(OC(=O)c1ccco1)C(=O)NC1CCCC1 (stereo not drawn)	.	0.9
CCc1ccc(NC(=O)Nc2nnc(N(CC)c3ccccc3)s2)cc1	0.44	-0.05
CC(C)C(=O)NCC(c1cccnc1)N1CCN(c2ccccc2)CC1 (stereo not drawn)	.	0.2
CN(C)C(=O)CSc1nc2ccccc2o1	0.09	-0.4
Cc1ccc(OC(=O)/C=C/c2cccs2)cc1	.	-0.15
CCCCNC(=O)N1CCCN(c2ccc(C#N)cn2)CC1	2.47	-0.55
CC1=C(C(=O)N2CCOCC2)C(c2cc(Br)ccc2F)C2=C(CC(C)(C)CC2=O)N1 (stereo not drawn)	32.1	.
O=C(CSc1nc2ccccc2c(=O)n1CC1CCC(C(=O)NCC2CCCO2)CC1)NCCC1=CCCCC1 (stereo not drawn)	-0.45	.
Cc1c(C)n(C(=O)CN2CCc3ccccc32)c2ccccc12	-0.195	1.65
Cc1ccc(-c2csc(/C(C#N)=C3/CCCC(C)C3)n2)cc1 (stereo not drawn)	-0.045	.
COC(=O)CSc1ccc2c3c(cccc13)C(=O)c1ccccc1-2	-0.285	.
CCc1ccc(N(C)C(=O)CN2Cc3ccccc3C2=O)cc1	-1.16	2.25
Cc1ccc(NC(=O)Cn2cnc3sc(C(=O)N4CCC(C(N)=O)(N5CCCCC5)CC4)c(C)c3c2=O)cc1Cl	-1.37	.
CC(C)(C)OC(=O)NC(Cc1cnc[nH]1)C(=O)NNC(=O)C1CCN(C(=O)OC(C)(C)C)CC1 (stereo not drawn)	0.105	.
Cc1nc2cc(Cl)ccc2c(=O)n1-c1ccc(F)cc1	-0.015	.
COC(=O)c1sc(SC)c(C#N)c1-c1ccco1	0.715	0.35
CS(=O)(=O)NCC(c1ccco1)N1CCCCC1 (stereo not drawn)	.	-0.45
O=C(CCc1ccc(S(=O)(=O)N2CCCCCC2)cc1)Nc1nnc(C2CC2)s1	.	0.35
Nc1c(C(=O)c2ccccc2)sc2nc3c(cc12)C(=O)CCC3	-0.12	1.15
COc1cccc(NC(=O)N2CCC(N(C)C(C)C)CC2)c1	0.755	-0.15
N#C/C(=C\Nc1cccc(C(F)(F)F)c1)c1nc2ccccc2[nH]1	1.78	0.55
COc1ccc(/C(N)=N/O)cc1OC1CCCC1	-0.11	0.45
CCOC(=O)c1c(C)[nH]c(C(=O)CN2C(=O)NC(CC)(c3ccc(F)cc3)C2=O)c1C (stereo not drawn)	.	0.15
CCc1ccc(-c2cc(C)no2)cc1S(=O)(=O)N(C)Cc1ccccc1	0.17	0.05
CCOC(=O)C1CCN(c2cc(NCCCO)c([N+](=O)[O-])c3nonc23)CC1	-1.48	.
CSc1cccc(NC(C#N)c2ccccc2)c1 (stereo not drawn)	-0.52	-0.2
CC(C)(C)OC(=O)N1CC2C(C1)C2NC(=O)c1nsc(Cl)c1Cl (stereo not drawn)	.	-1

Looked up above.
For Ba CapD inh, COc1ccc(/C(N)=N/O)cc1OC1CCCC1 shows -0.11
For AID504770, CCc1ccc(-c2cc(C)no2)cc1S(=O)(=O)N(C)Cc1ccccc1 shows 0.05

A draw from above in order of length of the SMILES, largest number first.
SMILES	Ba CapD inh	AID504770
Cc1ccc(NC(=O)Cn2cnc3sc(C(=O)N4CCC(C(N)=O)(N5CCCCC5)CC4)c(C)c3c2=O)cc1Cl	-1.37	.
CC(C)(C)OC(=O)NC(Cc1cnc[nH]1)C(=O)NNC(=O)C1CCN(C(=O)OC(C)(C)C)CC1 (stereo not drawn)	0.105	.
O=C(CSc1nc2ccccc2c(=O)n1CC1CCC(C(=O)NCC2CCCO2)CC1)NCCC1=CCCCC1 (stereo not drawn)	-0.45	.
CCOC(=O)c1c(C)[nH]c(C(=O)CN2C(=O)NC(CC)(c3ccc(F)cc3)C2=O)c1C (stereo not drawn)	.	0.15
CCOC(=O)C1CCN(c2cc(NCCCO)c([N+](=O)[O-])c3nonc23)CC1	-1.48	.
O=C(CCc1ccc(S(=O)(=O)N2CCCCCC2)cc1)Nc1nnc(C2CC2)s1	.	0.35
N#C/C(=C\Nc1cccc(C(F)(F)F)c1)c1nc2ccccc2[nH]1	1.78	0.55
Nc1c(C(=O)c2ccccc2)sc2nc3c(cc12)C(=O)CCC3	-0.12	1.15
Cc1c(C)n(C(=O)CN2CCc3ccccc32)c2ccccc12	-0.195	1.65
CCc1ccc(N(C)C(=O)CN2Cc3ccccc3C2=O)cc1	-1.16	2.25
Cc1nc2cc(Cl)ccc2c(=O)n1-c1ccc(F)cc1	-0.015	.
COC(=O)c1sc(SC)c(C#N)c1-c1ccco1	0.715	0.35
CS(=O)(=O)NCC(c1ccco1)N1CCCCC1 (stereo not drawn)	.	-0.45
COc1ccc(/C(N)=N/O)cc1OC1CCCC1	-0.11	0.45
CSc1cccc(NC(C#N)c2ccccc2)c1 (stereo not drawn)	-0.52	-0.2

Later entries
SMILES	Ba CapD inh	AID504770
COc1cc(CN2CCOCC2)ccc1O	0.165	-1.15
Cc1ccccc1-c1nnn(C/C(N)=N/O)n1	.	-0.7
COc1cccc(NC(=O)CCSc2ccc3ccccc3n2)c1	0.725	1.25
Cc1ccc(NC(=O)CSc2ncccc2C(=O)O)cc1Cl	0.68	.
Cc1ccc(C(=O)COc2nc(C)nc3ccccc23)cc1	.	-0.6
COc1cc(NC(=O)C2COc3ccccc3O2)c(OC)cc1Cl (stereo not drawn)	-0.09	.
CC(=O)N1CCCc2cc(S(=O)(=O)N3CCCC3)ccc21	0.68	1.5
COc1cccc(-n2c(C)cc3c2CC(C)(C)CC3=O)c1	-0.315	0.8
C=CCN(CC=C)Cc1c(O)ccc2c(=O)c(-c3ccccc3Cl)coc12	10.4	0.05
O=C(O)c1ccc(CO)o1	.	-0.35
COc1ccc(CNC(=O)c2cc3c(=O)[nH]c4ccccc4c3n2C)cc1	-0.09	-0.15
FC(F)(F)c1cccc(NC(=S)Nc2ccc(NC(=S)Nc3cccc(C(F)(F)F)c3)cc2)c1	-0.03	.
O=[N+]([O-])c1ccc(C2=NN(c3ccccc3)C3(S2)c2ccccc2C(c2ccc(Cl)cc2)=NN3c2ccccc2)cc1 (stereo not drawn)	1.23	.
N#CCC(=O)Nc1ccccc1Oc1ccccc1	0.165	-0.15
O=C(Nc1nonc1OCCOc1nonc1NC(=O)c1ccccc1)c1ccccc1	-0.195	-0.75
O=C(Nc1ccccc1-c1nc2ccccc2s1)c1ccccc1	2.98	0.3
Cc1nc(C(F)(F)F)ccc1C(=O)Nc1ccc2ccccc2n1	0.49	1.35
CCOc1ccc(NCc2n[nH]c(=S)n2-c2ccc(C)cc2)cc1	.	-0.9
COC(=O)CN1c2ccccc2NC2=C(C(=O)CC(C)(C)C2)C1c1ccco1 (stereo not drawn)	-0.95	1.95
C1CCCN(c2nc(N3CCCCCC3)nc(N3CCCCCC3)n2)CC1	1.49	-0.35
Cn1cc(-c2ccncc2)cn1	-0.285	.
CON(C)c1nc(OCCNC(=O)OCc2ccc(Cl)cc2Cl)nc(N(C)C)n1	.	-0.45
O=C(O)C1CCCCC1C(=O)NCc1cn2ccccc2n1 (stereo not drawn)	.	-0.15
CCOC(=O)C1(CC)C(=O)OC(C(=O)NC2CCCCC2)C1C (stereo not drawn)	.	0.55
CCC(=O)NC(=S)Nc1cccc(NC(=O)c2ccco2)c1	-0.22	-1.8
COc1ccc(N2CS(=O)(=O)CC2=O)cc1	-0.26	-2.2
Cc1ccc(C)c(NC(=O)CS(=O)(=O)c2c[nH]c3ccccc23)c1	-0.56	-0.25
COC(=O)c1cc(-c2cccc(Br)c2)no1	-0.17	-1.1
Cc1nc(CSc2nncs2)cs1	.	-0.3
O=S1(=O)CCN(Cc2ccc(NS(=O)(=O)c3cccs3)cc2)CC1	-1.1	0.25
COc1ccc(C(=O)Nc2ccccc2C2(C)CC2)cc1	0.65	-0.4
Cc1ccc(NC(=O)C2CC(=O)N(Cc3ccc(F)cc3)C2)cc1 (stereo not drawn)	0.38	-0.3
CC(OC(=O)Cn1ccc(=O)[nH]c1=O)c1ccccc1Cl (stereo not drawn)	.	3.25
O=C(Cn1c(=O)cnc2ccccc21)N1CCCCC1	38.6	-0.85
CC(=O)OC(C(=O)O)c1ccccc1 (stereo not drawn)	-0.955	.
Cc1cc(-n2c(=S)[nH]c3ccccc3c2=O)ccc1Br	-0.06	-0.7
O=C1Oc2ccc(Br)cc2CC1C(=O)N1CCCCC1 (stereo not drawn)	-0.04	.
CS(=O)(=O)Nc1cccc(-c2nc3cccnc3s2)c1	.	-0.35
COc1ccc(C(C)=O)cc1CSc1nc2ccccc2c(=O)n1NC(=O)CCc1c[nH]c2ccccc12	-0.585	.
CCSC1=C(C#N)C2(CCN(C)CC2)C(C#N)C(=O)N1 (stereo not drawn)	-0.855	-0.2
Cc1ccc(C(=O)N2CCc3ccccc32)cc1Br	0.75	-0.35
CCOc1cc(C(Nc2cccnc2)c2ccc3cccnc3c2O)ccc1O (stereo not drawn)	.	0.05
Cc1ccc(-c2cc(-c3ccccc3)nc(=O)[nH]2)cc1	15	2.1
Cc1sc2nc(COC(=O)C3CCN(S(=O)(=O)c4cccs4)CC3)[nH]c(=O)c2c1C	.	-0.95
COc1ccccc1OCCOc1ccc(-c2nc3sc4c(c3c(=O)[nH]2)CCCC4)cc1	11.7	-0.25
C=CCn1nnnc1SCC(=O)Nc1ccccc1	-0.15	0.85
COc1ccc(-c2ccnc(SCc3ccccc3)n2)cc1	1.1	.
CCN(CC)S(=O)(=O)c1ccc(Cl)c(C(=O)Oc2ccc(C)c(C)c2)c1	0.09	0.2
O=C(O)c1cc(O)[nH]c(=O)c1	82.4	0
COc1ccc(-n2c(C)cc(C3N=C(N)Nc4nc5ccccc5n43)c2C)cc1 (stereo not drawn)	.	0.2

Following part
SMILES	Ba CapD inh	AID504770
CN1CCN(/N=C2/C=C(c3ccccc3)C(O)(c3ccccc3)C2)CC1 (stereo not drawn)	.	-0.05
N#CC1=C(N)C(C#N)(C#N)C(c2cccc(F)c2)C2CCCC=C12 (stereo not drawn)	4.91	.
O=C(c1cc2ccccc2o1)c1cnc2ccccn12	.	-0.75
COc1ccc(NC(=O)c2ccc(CN3CCc4ccccc4C3)cc2)cc1OC	-0.12	-1.55
Cc1ccc(C(=O)C(CC(=O)Nc2ccc(F)c(F)c2)c2nc3ccccc3[nH]2)cc1 (stereo not drawn)	-0.04	0.85
CON(C)CC(=O)Nc1cc(Cl)cc(Cl)c1	.	-0.9
CCn1c(=O)c(NC(=O)c2ccccc2)c2n(c1=S)CCCCC2	.	-0.25
CCCN(CCC)C(=O)c1c[nH]c2ccc(S(=O)(=O)N(C)c3ccc(Br)cc3)cc2c1=O	0.355	.
Cc1cccc(N2CCN(C(=O)c3ccc(NC(N)=O)cc3)CC2C)c1 (stereo not drawn)	.	-0.05
COc1nc(OC)nc(Sc2nc(C)cc(C)n2)n1	-0.42	.
CCOc1cccc2c1N(C(=O)c1ccc(Cl)cc1Cl)C(C)(C)C(=S)C2=C1SC(C(=O)OC)=C(C(=O)OC)S1	-0.575	.
Cc1ncc(S(=O)(=O)c2ccccc2)c(-c2ccc(Cl)cc2Cl)n1	-0.58	.
CCCNC(=O)Nc1ccc2c(c1)oc1ccccc12	0.61	0.9
CN1CCN(c2ncc(CN3CCN(c4ccccc4)CC3)s2)CC1	-0.71	.
O=C(Nc1ccc2c(c1)S(=O)(=O)c1cc(NC(=O)C34CC5CC(CC(C5)C3)C4)ccc1-2)C12CC3CC(CC(C3)C1)C2	14.3	.
CCOc1ccc(NC(=O)C23CC4CC(CC(C4)C2)C3)cc1	0.305	-0.55
COc1cc2nc(N3CCN(C(=O)C4CCCO4)CC3)nc(N)c2cc1OC (stereo not drawn)	4.91	.
COC(=O)C1CCCCC1c1nc(OC)cc(OC)n1 (stereo not drawn)	-0.81	.

High-throughput results as filed in PubChem.
